# Bioassay records (PubChem BioAssay)
# PrP UTR inh = inhibition of PrP 5' UTR reporter expression | cell-based PrP 5' UTR mRNA reporter, plate reader | 0.35% of 340,000 active | AID 488862 | inhibition, % (no concentration beside the values);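 active = every replicate at 50% or more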;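 also: 0 = median of the neutral control wells; tested in H4 reporter cells; numbers are from one replicate; inactives centre near -14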
# RN4220 kill = S. aureus RN4220 growth inhibition; OD600, 16 h; inhibition, % (concentration not given with the values); AID 1259311; 0.33% of 330,000 active;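 active = z-score of -3 or lower and OD600 up to 0.18 on both plates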;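 also: plate controls were untreated cells for no effect and reference antibiotic for full effect; stock transfer was 100 nL into about 80 µL; one replicate is shown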
# ugtP null kill = growth inhibition of S. aureus ugtP deletion strain; 0.54% of 330,000 active; AID 1259309; S. aureus RN4220 ugtP deletion, OD600 growth, 16 h; some inactives read as strong as hits; growth inhibition, % (concentration not given with the values);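 active = z-score under -3 and OD600 up to 0.15 on both plates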;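 also: plate controls were untreated wells for no effect and antibiotic for full effect; wells of about 80 µL received 100 nL stock; the first replicate is given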
# BJeLR lethal = kills HRASV12-expressing BJeLR cells; BJeLR (HRASV12) viability, CellTiter-Glo ATP luminescence, 48 h; reference of the scale not given here; 0.17% of 300,000 active; inhibition, % (concentration not given with the values);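 active = replicate mean above 50%; inconclusive = above 50% but judged a plate artefact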;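 also: 50 nL library stock added to about 25 µL; numbers are from one replicate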
# Autofluor counter = counter-screen for toxin protease inhibitors: compound fluorescence. compound autofluorescence counterscreen, microsphere flow cytometry; hits give high values. fluorescence intensity (test concentration not listed). 3.1% of 360,000 active;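 active = at least 3 SD above the mean of all compounds, about 16000 in these data; inconclusive = too few beads counted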;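 also: 100 nL of 1 mM stock went into each well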
# Mtb hypoxia rep = reduces hypoxia-regulated biosensor signal in M. tuberculosis; M. tuberculosis hypoxia-regulated fluorescent reporter, fluorescence; fluorescence inhibition, % (no concentration beside the values); 0.1% of 300,000 active;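 active = 35 to 45% if threefold the growth effect, above 45% if 1.5-fold the growth effect; inactive = the rest, general growth blockers included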;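 also: wells of about 50 µL received 100 nL stock; 0% = vehicle wells and 100% = reference inhibitor wells; whole bacteria with a GFP reporter of the hypoxia response; strong numbers were not always called active; many hits fall short of the cut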
# Mtb hypoxia rep growth = second read-out of Mtb hypoxia rep, no call of its own (marks repeat the call); growth inhibition, %; measured here: M. tuberculosis growth (absorbance);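 0% = vehicle and 100% = reference antibiotic; read after six days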
# The depositor's hits bear a star; ? = inconclusive; / = no result given.
# The line under a structure holds: PrP UTR inh, RN4220 kill, ugtP null kill, BJeLR lethal, Autofluor counter, Mtb hypoxia rep, Mtb hypoxia rep growth
N=C1SCC(=O)N1c1ccc(Cl)cc1
 : -10, 1.4, 1, -4, 4081, 1, -3
CCOC(=O)COc1cc(N2C(=O)CSCC2=O)c(Cl)cc1Cl
 : -11, 3.4, -3, 2, 9911, 16, 7
COC(=O)c1cc(S(=O)(=O)N2CCN(C3CCCCC3)CC2)c[nH]1
 : -40, -3.8, -6, -5, 5404, 0, -12
CCC(C)n1c(O)c(C=NCCc2ccccc2)c(=O)[nH]c1=S (stereo not drawn)
 : -14, 4.2, 1, -6, 3605, 1, 2
COc1ccc(CN2CCC(=O)N(C(CO)CC(C)C)CC2)cc1 (stereo not drawn)
 : /, 3.5, -4, /, /, -1, -3
CC1CCc2c(C(=O)NCCN3CCOCC3)csc2C1 (stereo not drawn)
 : -15, 4.9, 7, 4, 9255, 2, 4
CCC(C)c1ccc(NC(=S)NCc2cccnc2)cc1 (stereo not drawn)
 : -7, -0.4, 3, -7, 2589, 3, 6
CCN1CCc2nc3ccccc3c(C(=O)Nc3ccc(NC(C)=O)cc3)c2C1
 : -30, 3.5, 4, -12, 6000, 3, 4
CCOC(=O)C1=C(COC(=O)COc2ccccc2OCC)NC(=O)NC1C (stereo not drawn)
 : -20, 5.4, 7, -1, 4839, -1, 0
Cc1cc(OCc2cc(C(=O)N3CCC(Oc4cccnc4)CC3)no2)cc(C)c1Cl
 : -19, /, /, 0, ?, /, /
O=S(=O)(NCc1ccc2c(c1)OCO2)c1ccc(Cl)s1
 : -12, 2.1, 2, -2, 4762, 7, 3
CC(=O)Nc1ccc(NC(=O)CNC(=O)c2cccc(C)c2)cc1
 : -13, 2.0, 9, 3, 5903, 0, -11
CCN1C(=O)[C@H]2[C@@H](c3ccc(-c4ccc(F)cc4)c(OC)c3)N3CCC[C@@]3(C(=O)OC)[C@H]2C1=O
 : -12, /, /, 2, 3076, /, /
CCN(Cc1nc(-c2cccc(Cl)c2)no1)CC1CCCO1 (stereo not drawn)
 : -31, 4.4, 7, 0, 5053, 5, 4
O=C(CSCCO)Nc1nccs1
 : -3, 4.4, -1, /, 4152, /, /
O=C(NN=Cc1cccc([N+](=O)[O-])c1)c1cc(-c2ccc3c(c2)OCO3)n[nH]1
 : /, 0.0, 1, /, /, -5, 1
Cc1ccc(C(=O)NC2CC(C)(C)NC(C)(C)C2)cc1S(=O)(=O)N1CCOCC1
 : -26, 1.6, 3, /, 4803, 5, 0
Cc1cc(Oc2ccccc2)nc(-c2ccccc2O)n1
 : -10, 1.1, 23, 3, 2892, 9, 6
Cc1ccccc1SCC(=O)NCC(c1ccc(F)cc1)N1CCOCC1 (stereo not drawn)
 : -20, 13, -2, /, 3839, 16, 9
CCOC(=O)C1CCN(C(=O)Nc2ccc(OCc3ccccc3)cc2)CC1
 : -31, 2.6, 2, -13, 3889, -9, -10
O=C(CSc1nc(C2CC2)nc2ccccc12)N1CCc2ccccc21
 : -8, 0.2, 7, /, 4966, 8, -2
COc1ccccc1N(CC(=O)NCc1ccco1)S(=O)(=O)c1ccc(C)cc1
 : -14, -1.1, -8, 6, 3746, 13, -3
NNC(=O)CSCc1ccc(Cl)cc1Cl
 : -13, 0.2, 3, -5, 1964, -2, -6
O=S(=O)(c1ccc(Br)s1)N1CCN(c2ccccn2)CC1
 : -11, 9.6, 10, -1, 8013, 10, 12
CCN(CC)C(=O)N1c2ccccc2CC(N(CC)CC)c2ccccc21 (stereo not drawn)
 : -23, 9.0, 0, 5, 3441, 10, 8
CCCCOP(=O)(c1ccc(N(C)C)cc1)C(O)c1ccc(OC)cc1 (stereo not drawn)
 : -34, 4.0, 7, -4, 3612, 13, 11
NS(=O)(=O)c1cccc(NC(=O)CSc2nc3ccccc3c(=O)n2CCCN2CCOCC2)c1
 : -10, 7.2, 10, -2, 11112, -6, -4
CC1CN(C(C)CO)C(=O)Cc2cc(NC(=O)Nc3ccccc3)ccc2OC1CN(C)C(=O)Nc1ccc2c(c1)OCO2 (stereo not drawn)
 : /, 6.8, 4, /, /, -7, 1
O=C1c2ccccc2S(=O)(=O)c2cc(C(=O)N3CCC(C(=O)N4CCCCC4)CC3)ccc21
 : /, 8.0, 3, -12, /, 2, -5
CC(C)(C)N(Cc1ccccc1)C(=O)COC(=O)c1ccc(N2CCCC2=O)cc1
 : -29, 1.1, -1, /, 3791, 8, -7
Cc1ccc(S(=O)(=O)N(C)C)cc1NC(=O)c1cc(S(=O)(=O)N2CCCCC2)ccc1N1CCOCC1
 : -9, -1.0, 1, /, 6150, -14, -8
COc1ccc(N2CCN(C(=O)C3(C)CC3(Cl)Cl)CC2)cc1 (stereo not drawn)
 : 9, 6.3, 10, -3, 2519, 9, 1
CCc1ccccc1NC(=O)NCc1ccc2c(c1)OCO2
 : -12, /, /, 7, 6516, /, /
O=c1nc2n(c3ncccc13)CCCCC2
 : -25, 2.8, 2, 1, 4398, -10, 2
CC(/C=C/c1ccccc1)=NNC(=S)NC(C)C
 : /, 1.2, 0, /, /, 17, 10
O=C(COc1cccc(-n2cnnn2)c1)NCCC1=CCCCC1
 : -19, 2.2, 8, 3, 4458, /, /
COc1ccc(Cc2c(O)[nH]c(=S)[nH]c2=O)cc1
 : -55, /, /, -2, 4057, /, /
O=C(COC(=O)CC1CCCC1)Nc1cccc(F)c1
 : -15, 0.2, 0, /, 6760, 4, 0
CC1CCN(CCOCCOc2ccccc2Br)CC1
 : -19, 3.1, 11, -2, 2614, 16, 4
C=Cn1ccnc1P(O)(=S)c1nc(C)c(CCOC(C)=O)s1 (stereo not drawn)
 : -1, 8.9, 10, 2, 4422, 6, 9
CC(=O)c1cccc(N2C(=O)Nc3ccccc3N2O)c1
 : -37, 2.7, 0, 0, 2688, 3, 2
CC1(C)CC(=O)C/C(=N/NC(=O)C2CCN(S(=O)(=O)c3cccs3)CC2)C1
 : -11, /, /, -8, 1957, /, /
CCCc1cc(=O)[nH]c(SCC(=O)N2CCc3cc(OC)c(OC)cc3C2)n1
 : 21, 6.6, 9, /, 2887, 6, 4
O=C(COC(=O)/C=C/c1cccc(C(F)(F)F)c1)NCc1cccs1
 : -20, 2.6, 7, /, ?, 3, -1
O=S(=O)(NC1CCCC1)c1ccc(Br)s1
 : -10, 8.0, 6, -5, 8532, -4, 4
COc1ccc(/C=C/C(=O)c2ccc[nH]2)cc1OC
 : -36, 0.1, -7, -11, 16560*, 3, -2
CC(C)c1nc(SCC(=O)Nc2cccc3ccccc23)n[nH]1
 : -28, 4.1, 6, /, 3509, 2, 5
O=C(CSc1ccc2c(c1)OCCO2)Nc1ccc(N2CCOCC2)cc1
 : -33, 0.1, 2, 5, 4081, 13, 6
CC1Cc2ccccc2N1C(=O)CNCCCN(C)C (stereo not drawn)
 : -10, 1.8, 8, -4, 3245, 0, 7
CCOc1cc(C(=O)Nc2ccccc2N2CCN(S(C)(=O)=O)CC2)cc(OCC)c1OCC
 : 3, 4.7, 3, -3, 3277, /, /

# In another format: results already given
SMILES | PrP UTR inh | RN4220 kill | ugtP null kill | BJeLR lethal | Autofluor counter | Mtb hypoxia rep | Mtb hypoxia rep growth
C=Cn1ccnc1P(O)(=S)c1nc(C)c(CCOC(C)=O)s1 (stereo not drawn) | -1 | 8.9 | 10 | 2 | 4422 | 6 | 9
CC(=O)c1cccc(N2C(=O)Nc3ccccc3N2O)c1 | -37 | 2.7 | 0 | 0 | 2688 | 3 | 2
CC1(C)CC(=O)C/C(=N/NC(=O)C2CCN(S(=O)(=O)c3cccs3)CC2)C1 | -11 | / | / | -8 | 1957 | / | /
CCCc1cc(=O)[nH]c(SCC(=O)N2CCc3cc(OC)c(OC)cc3C2)n1 | 21 | 6.6 | 9 | / | 2887 | 6 | 4
O=C(COC(=O)/C=C/c1cccc(C(F)(F)F)c1)NCc1cccs1 | -20 | 2.6 | 7 | / | ? | 3 | -1
O=S(=O)(NC1CCCC1)c1ccc(Br)s1 | -10 | 8.0 | 6 | -5 | 8532 | -4 | 4
COc1ccc(/C=C/C(=O)c2ccc[nH]2)cc1OC | -36 | 0.1 | -7 | -11 | 16560* | 3 | -2
CC(C)c1nc(SCC(=O)Nc2cccc3ccccc23)n[nH]1 | -28 | 4.1 | 6 | / | 3509 | 2 | 5
O=C(CSc1ccc2c(c1)OCCO2)Nc1ccc(N2CCOCC2)cc1 | -33 | 0.1 | 2 | 5 | 4081 | 13 | 6
CC1Cc2ccccc2N1C(=O)CNCCCN(C)C (stereo not drawn) | -10 | 1.8 | 8 | -4 | 3245 | 0 | 7
CCOc1cc(C(=O)Nc2ccccc2N2CCN(S(C)(=O)=O)CC2)cc(OCC)c1OCC | 3 | 4.7 | 3 | -3 | 3277 | / | /

# (further entries)
# The line under a structure holds: PrP UTR inh, RN4220 kill, ugtP null kill, BJeLR lethal, Autofluor counter, Mtb hypoxia rep, Mtb hypoxia rep growth
Cc1ccc(CNC(=O)CNC(=S)N(Cc2ccccc2)Cc2cccnc2)cc1
 : -15, 5.6, 2, -13, 3804, 15, 2
O=C(CSc1ccc(F)cc1)NCCSc1ccccc1
 : -23, 0.1, 0, -2, 4295, 2, 2
O=C(CSc1n[nH]c(-c2ccccc2)n1)NC(=O)NCc1ccco1
 : -26, 2.6, -7, 0, 13029, 4, 4
O=C(COC(=O)CNC(=O)c1ccccc1F)NCCNC(=O)COC(=O)CNC(=O)c1ccccc1F
 : -26, 0.2, -1, 9, 5209, -2, 3
CC(C)(C)C(=O)c1cn(CC(=O)O)c2ccccc12
 : -15, 2.8, 6, -7, 4111, -2, -3
NS(=O)(=O)c1ccc(CCNC(=O)CNC(=O)c2ccc(Oc3ccccc3)cc2)cc1
 : -11, 3.7, 0, -4, 6064, -1, -1
O=C(COC(=O)c1ccc(O)cc1)NC1CCCC1
 : -14, 1.2, -5, -6, 3803, -7, -3
CC(=NNC(=O)c1cc(-c2cccnc2)nc2ccccc12)c1ccccc1O
 : /, -3.6, -4, /, /, -3, 5
CCS(=O)(=O)N1CCCC(c2nc(-c3cccc(OC)c3)no2)C1 (stereo not drawn)
 : -36, 3.4, 8, 0, 23563*, 3, 0
CC(C)OCCCN1CC(=O)N2C(c3ccccc3)c3[nH]c4ccccc4c3C[C@H]2C1=O (stereo partly drawn)
 : -19, -2.4, 6, 4, 3880, -5, -6
Cc1oc(-c2cccc(F)c2)nc1CN1CCCCC1CCc1ccccn1 (stereo not drawn)
 : 0, 2.4, 10, 8, 9727, 6, 3
CCOc1ccc(C(=O)NNC(=O)CN2C(=O)C3CC=CCC3C2=O)cc1OC (stereo not drawn)
 : -24, 3.3, 1, /, 7825, 3, 6
C=CCn1c(O)c(C2=c3ccccc3=NC2=O)sc1=Nc1nccs1
 : /, 4.3, 5, /, /, 11, -3
COCCOC(=O)c1[nH]c2c(c1C)C(=O)CC(c1cccs1)C2 (stereo not drawn)
 : -13, 1.4, 10, 40, 4673, -9, -3
CCN1CCC2(CC1)NC(CO)(CO)CO2
 : -9, -14, -2, -9, 2750, 15, 7
CC(C)C[C@H](N)c1cn([C@@H](CCCCN)C(=O)N2CCNCC2)nn1
 : -8, /, /, 2, 2860, /, /
COc1ccc(N2CCN(c3cc(C)c4ccc(O)cc4n3)CC2)cc1
 : -58, 1.8, -10, -8, 5233, -2, -5
COc1ccc(NC(=O)CNc2ccccc2C(C)=O)cc1S(=O)(=O)N1CCOCC1
 : /, -5.5, -4, /, 5675, 4, 12
Cc1cccnc1NC(=O)C1CCN(S(=O)(=O)c2ccc3ccccc3c2)CC1
 : -22, 0.7, 6, -9, ?, 1, 8
Cc1ccc(OCC(O)CN2CC3(C)CC2CC(C)(C)C3)cc1 (stereo not drawn)
 : -13, 3.3, 5, 7, 2154, -5, -2
Cc1ccc(NC(=O)CN(C(=O)N2CCN(C)CC2)S(=O)(=O)c2ccc(C)cc2)cc1
 : -8, 1.0, -1, -4, ?, -3, 5
Cn1nc(C(F)(F)F)cc1-c1ccc(/C=C(\C#N)C(=O)c2cccc(C(F)(F)F)c2)s1
 : /, -3.1, -2, -2, /, 12, 0
CC(OC(=O)Cn1cnc2c1c(=O)n(C)c(=O)n2C)C(=O)NC(C)c1ccc(Cl)cc1Cl (stereo not drawn)
 : 4, -4.0, 5, 3, 6026, -3, 7
COc1cccc(NC(=O)CN2C(=O)NC(CCc3ccccc3)C2=O)c1 (stereo not drawn)
 : /, 2.5, 3, /, 9192, 10, 9
CN(C)CCNC(=O)c1cc2c(s1)-c1ccccc1OC2
 : -20, -2.2, 5, 5, 4371, 9, -3
NS(=O)(=O)c1ccc(NC(=O)CSc2nc3c(c(=O)[nH]2)CCCC3)cc1
 : -35, 6.5, 5, -10, 6735, -11, 6
